Screening data (PubChem BioAssay)
Vaccinia stage: blocks a specific stage of Vaccinia orthopoxvirus infection. Vaccinia-infected cells, mCherry/Venus stage reporter fluorescence; active compounds read low; some inactives read as strong as hits. activity change (mCherry), % (no concentration beside the values). actives 0.01% (n = 89,000). AID 1053133;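 active means mCherry past -33% and 40 or more points under the early reporter, replicates agreeing; inconclusive means past -33% without that gap or agreement; tested in A549 cells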;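 further: scaled between vehicle wells and reference inhibitor wells; 23 nL library stock went into each well; one replicate is shown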
Vaccinia stage Venus: recorded beside Vaccinia stage, whose call it bears; activity change (Venus), %; measured here: Venus reporter, other viral stage;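 negative = less Venus signal; first of two replicates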
Active calls of the source: *; ? = inconclusive; nt = no result given; & = joins results of further samples. An excerpt; count on the stated rates, not on these rows.

cpd | Compound | Vaccinia stage | Vaccinia stage Venus
1 | Cc1ccccc1-c1ccc([C@H]2[C@@H](CO)N3CCCCN(S(C)(=O)=O)C[C@H]23)cc1 | 0.6 | -4.6
2 | C[C@H](CO)N1C[C@H](C)[C@H](CN(C)C(=O)C2CC2)OCc2ccccc2-c2ccccc2C1=O | 12.3 | 1.9
3 | CCC(=O)Nc1ccc2c(c1)OC[C@@H](C)N(Cc1cccnc1)C[C@H](C)[C@H](OC)CN(C)C2=O | 1.3 | 2.9
4 | Cc1ccc(S(=O)(=O)Nc2cccc3c2O[C@H](CN(C)CC2CCCCC2)[C@@H](C)CN([C@@H](C)CO)C3=O)cc1 | -5.9 | 2.4
5 | C[C@H]1CN([C@@H](C)CO)C(=O)Cc2cc(NC(=O)Cc3ccccc3)ccc2O[C@H]1CN(C)Cc1ccc(-c2ccccc2)cc1 | ? | nt
6 | C[C@@H]1CN([C@@H](C)CO)C(=O)c2cc(/C=C/c3ccccc3)cnc2O[C@H]1CN(C)Cc1cccnc1 | -21.2 | -13.7
7 | C[C@@H]1CN([C@@H](C)CO)C(=O)Cc2cc(NC(=O)Cn3cnnn3)ccc2O[C@@H]1CN(C)S(=O)(=O)c1cccs1 | 0.5 | 4.6
8 | C[C@@H]1CN([C@H](C)CO)C(=O)c2cc(NS(=O)(=O)c3ccccc3)ccc2O[C@@H]1CN(C)Cc1ccccc1 | -21.7 | -19.3
9 | COCCNC(=O)C[C@@H]1CC[C@H]2[C@@H](COC[C@@H](O)CN2S(=O)(=O)c2ccccc2C)O1 | -2.3 | -0.7
10 | C[C@@H]1CN([C@H](C)CO)C(=O)c2cc(NC(=O)NC3CCCCC3)ccc2O[C@@H]1CN(C)Cc1ccc(Oc2ccccc2)cc1 | ? | nt
11 | COc1ccc(CNC(=O)C[C@@H]2CC[C@@H](NC(=O)Nc3ccc4c(c3)OCO4)[C@H](CO)O2)cc1 | 8.0 | 12.4
12 | COc1ccc(CNC(=O)C[C@@H]2C[C@H]3c4cc(NC(=O)CN(C)C)ccc4O[C@H]3[C@@H](CO)O2)cc1 | 0.7 | -4.7
13 | CN1c2ccc(Br)cc2[C@@H]2[C@@H](CCN2C(=O)C2CC2)[C@@H]1CO | 5.8 | 3.8
14 | CCCNC(=O)N1[C@H](CNC(=O)CC)[C@H](c2ccc(C3=CCCC3)cc2)[C@@H]1CO | -2.6 | -3.8
15 | N#C[C@@H]1[C@@H](c2ccccc2)[C@H](CO)N1C(=O)Cc1ccccn1 | 9.4 | 9.0

The list goes on.
cpd | Compound | Vaccinia stage | Vaccinia stage Venus
16 | CCS(=O)(=O)N[C@H]1CC[C@H](CC(=O)N2CCCCC2)O[C@H]1CO | 6.5 | 13.7
17 | COc1ccc(NC(=O)N(C)C[C@H]2Oc3c(NC(=O)c4cc(C)nn4C)cccc3C(=O)N([C@@H](C)CO)C[C@H]2C)cc1 | 24.7 | 13.4
18 | C[C@@H]1CN([C@H](C)CO)C(=O)Cc2cc(NS(=O)(=O)c3ccccc3)ccc2O[C@H]1CN(C)Cc1ccncc1 | 14.3 | 5.8
19 | CCc1csc(N2[C@H](C#N)[C@H](c3ccc(-c4ccc(F)cc4)cc3)[C@H]2CO)n1 | -16.7 | -8.7
20 | C[C@@H]1CN([C@H](C)CO)C(=O)c2cc(NC(=O)c3ccncc3)ccc2O[C@@H](C)CCCCO[C@@H]1CN(C)Cc1ccc(C(=O)O)cc1 | 35.2 | 5.9
21 | COCC#Cc1ccc([C@@H]2[C@@H](CO)N3CCCCN(S(=O)(=O)c4ccccc4C)C[C@@H]23)cc1 | -23.6 | -26.0
22 | C[C@@H](NC(=O)[C@H]1[C@H](CO)[C@H]2Cn3c(ccc(-c4ccccc4F)c3=O)[C@@H]1N2C)c1ccccc1 | -7.3 | -7.3
23 | C[C@H](CO)N1C[C@H](C)[C@@H](CN(C)Cc2ccncc2)Oc2ccc(NC(=O)Nc3cccc4ccccc34)cc2C1=O | 4.2 | -5.3
24 | CCC(=O)N1C[C@@H]2[C@H](c3ccccc31)[C@@H](CO)N2C(=O)CC | 4.9 | -2.8
25 | C[C@@H]1CCCCO[C@@H](CN(C)C(=O)C2CCCCC2)[C@@H](C)CN([C@H](C)CO)C(=O)c2cc(NC(=O)C3CCCCC3)ccc2O1 | -6.5 | -5.1
26 | CCC(=O)N[C@@H]1CC[C@@H](CC(=O)NCC2CCCCC2)O[C@H]1CO | 1.7 | -5.5
27 | O=C(C[C@H]1CC[C@H]2[C@@H](COC[C@H](O)CN2Cc2ccc(Oc3ccccc3)cc2)O1)N1CCN(c2ccccc2)CC1 | ? | nt
28 | Cc1ccc(S(=O)(=O)Nc2ccc3c(c2)C(=O)N([C@H](C)CO)C[C@@H](C)[C@@H](CN(C)C(=O)CCC(F)(F)F)OCCCC[C@@H](C)O3)cc1 | ? | nt
29 | C[C@@H]1CN([C@H](C)CO)C(=O)c2cc(C#C[C@@H](C)O)cnc2O[C@H]1CN(C)C(=O)c1ccccc1F | -1.5 | -6.8
30 | CN(C)CC(=O)N[C@@H]1CC[C@H](CCn2cc(C3CC3)nn2)O[C@@H]1CO | 1.1 | 1.9

New compounds follow:
cpd | Compound | Vaccinia stage | Vaccinia stage Venus
31 | COc1ccc(S(=O)(=O)Nc2ccc3c(c2)C(=O)N([C@@H](C)CO)C[C@@H](C)[C@@H](CN(C)S(=O)(=O)c2ccc(Cl)cc2)OCCCC[C@@H](C)O3)cc1 | -30.3 | -20.7
32 | CO[C@@H]1CN(C)C(=O)c2ccc(NC(=O)c3cc(C)on3)cc2OC[C@@H](C)NC[C@@H]1C | -4.9 | -1.5
33 | C[C@@H]1CCCCO[C@@H](CN(C)C(=O)c2ccncc2)[C@@H](C)CN([C@H](C)CO)C(=O)c2cc(NS(C)(=O)=O)ccc2O1 | 16.3 | 13.0
34 | CO[C@H]1CN(C)C(=O)c2ccc(NS(=O)(=O)c3ccccc3)cc2OC[C@@H](C)N(Cc2ccccn2)C[C@@H]1C | 18.4 | 6.2
35 | COc1ccccc1C#Cc1ccc([C@H]2[C@@H](CO)N3CCCCN(S(C)(=O)=O)C[C@H]23)cc1 | ? | nt
36 | COCC#Cc1ccc([C@@H]2[C@H]3CN(C(=O)Cc4ccccn4)CCCCN3[C@H]2CO)cc1 | 6.9 | -7.5
37 | C[C@H]1CCCCO[C@@H](CN(C)Cc2ccc(C(=O)O)cc2)[C@@H](C)CN([C@@H](C)CO)C(=O)c2cc(NS(=O)(=O)c3ccc(F)cc3)ccc2O1 | 17.8 | 8.1
38 | C[C@H](CO)N1C[C@H](C)[C@@H](CN(C)C(=O)Nc2ccc(C(F)(F)F)cc2)Oc2ccc(NC(=O)Nc3ccc(C(F)(F)F)cc3)cc2CC1=O | 0.5 | 3.8
39 | C[C@@H]1CCCCO[C@H](CN(C)S(=O)(=O)c2cccs2)[C@H](C)CN([C@H](C)CO)C(=O)c2cc(NC(=O)CCC(F)(F)F)ccc2O1 | ? | nt
40 | CO[C@H]1CN(C)C(=O)c2ccc(NC(C)=O)cc2OC[C@H](C)N(C(=O)CC2CC2)C[C@@H]1C | 6.8 | 4.2
41 | CCC(=O)Nc1ccc2c(c1)OC[C@@H](C)N(C(C)=O)C[C@H](C)[C@@H](OC)CN(C)C2=O | 1.6 | 1.9
42 | C[C@H](CO)N1C[C@H](C)[C@H](CN(C)C(=O)NC2CCCCC2)Oc2ccc(NC(=O)Cc3ccccc3)cc2CC1=O | -5.3 | -1.1
43 | Cc1noc(C)c1S(=O)(=O)N(C)C[C@@H]1Oc2c(NC(=O)c3ccc(-c4nccs4)cc3)cccc2C(=O)N([C@@H](C)CO)C[C@@H]1C | -5.9 | 3.2
44 | O=C(N[C@@H]1C=C[C@@H](CC(=O)N2CCOCC2)O[C@H]1CO)c1ccccn1 | -10.4 | -7.7
45 | COc1cccc(S(=O)(=O)Nc2ccc3c(c2)OC[C@H](C)NC[C@H](C)[C@@H](OC)CN(C)C3=O)c1 | 1.9 | 7.3

(list continues)
cpd | Compound | Vaccinia stage | Vaccinia stage Venus
46 | Cc1ccc(S(=O)(=O)Nc2cccc3c2O[C@@H](CN(C)S(=O)(=O)c2ccc(C)cc2)[C@H](C)CN([C@H](C)CO)C3=O)cc1 | -0.1 | 3.0
47 | COCC#Cc1ccc([C@@H]2[C@H](CO)N3CCCCN(S(=O)(=O)c4ccc(OC)cc4)C[C@@H]23)cc1 | -20.3 | -9.1
48 | COc1ccc(NC(=O)Nc2ccc3c(c2)C(=O)N([C@@H](C)CO)C[C@@H](C)[C@H](CN(C)C(=O)Nc2c(C)noc2C)OCCCC[C@@H](C)O3)cc1 | 5.3 | 10.4
49 | O=S(=O)(N[C@@H]1CC[C@H](CCn2cc(-c3ccccn3)nn2)O[C@H]1CO)c1cccc(F)c1 | -1.9 | 6.3
50 | CC(C)NC(=O)N(C)C[C@@H]1Oc2ccc(NC(=O)Nc3ccc(C(F)(F)F)cc3)cc2CC(=O)N([C@@H](C)CO)C[C@@H]1C | -10.2 | -5.2
51 | C[C@H](CO)N1C[C@H](C)[C@@H](CN(C)CC2CCCCC2)Oc2ccc(NS(=O)(=O)c3cn(C)cn3)cc2CC1=O | -8.1 | -6.7
52 | C[C@@H]1CN([C@H](C)CO)C(=O)c2ccccc2-c2ccccc2CO[C@H]1CN(C)S(=O)(=O)c1ccc(C#N)cc1 | 20.9 | 3.0
53 | C[C@@H]1CCCCO[C@@H](CN(C)C(=O)CCC(F)(F)F)[C@@H](C)CN([C@@H](C)CO)C(=O)c2cc(N(C)C)ccc2O1 | -0.3 | -6.4
54 | C[C@@H]1CCCCO[C@@H](CN(C)S(=O)(=O)c2cccs2)[C@@H](C)CN([C@@H](C)CO)C(=O)c2cc(NS(=O)(=O)c3ccccc3)ccc2O1 | -1.2 | -3.3
55 | C[C@@H]1CN([C@@H](C)CO)C(=O)c2cc(-c3ccc(C#N)cc3)cnc2O[C@H]1CN(C)Cc1ccncc1 | 5.9 | 1.3
56 | O=C(C[C@@H]1C=C[C@@H](NC(=O)c2cccc(F)c2)[C@H](CO)O1)Nc1nccs1 | 8.0 | -4.7
57 | O=C(Cc1cccnc1)N1CCCCN2[C@H](CO)[C@@H](c3ccc(/C=C/c4ccccc4)cc3)[C@H]2C1 | -19.5 | -13.5
58 | C[C@@H]1CN([C@@H](C)CO)C(=O)Cc2cc(NS(C)(=O)=O)ccc2O[C@H]1CN(C)Cc1ccc(C(=O)Nc2ccccc2N)cc1 | 17.8 | 13.8
59 | CC(C)NC(=O)Nc1ccc2c(c1)C(=O)N([C@@H](C)CO)C[C@H](C)[C@@H](CN(C)Cc1ccc(Cl)c(Cl)c1)O2 | 0.2 | 1.2
60 | O=S(=O)(N[C@@H]1CC[C@H](CCn2cc(-c3ccc(F)cc3)nn2)O[C@H]1CO)c1ccccc1F | 0.2 | -2.6

Continuation.
cpd | Compound | Vaccinia stage | Vaccinia stage Venus
61 | CNC[C@H]1OCCCC[C@@H](C)Oc2ccc(NC(=O)NC(C)C)cc2C(=O)N([C@@H](C)CO)C[C@@H]1C | 5.8 | 10.4
62 | COc1ccc(S(=O)(=O)Nc2cccc3c2O[C@@H](CN(C)S(=O)(=O)c2cccs2)[C@H](C)CN([C@@H](C)CO)C3=O)cc1 | -4.8 | -0.8
63 | C[C@@H]1CCCCO[C@@H](CN(C)C(=O)c2ccccc2)[C@@H](C)CN([C@H](C)CO)C(=O)c2cc(NS(C)(=O)=O)ccc2O1 | 6.2 | 13.1
64 | CCC(=O)N(C)C[C@@H]1Oc2ncc(Br)cc2C(=O)N([C@H](C)CO)C[C@H]1C | 4.6&10.1 | 4.9&10.7
65 | CO[C@@H]1CN(C)C(=O)c2ccc(NC(=O)Nc3cc(F)ccc3F)cc2OC[C@@H](C)N(C(=O)c2cnccn2)C[C@@H]1C | 18.3 | 14.7
66 | CN1[C@@H]2CN(C(=O)Nc3cc(F)ccc3F)c3ccccc3[C@@H]2[C@@H]1CO | 17.4 | 2.2
67 | COc1ccc(CN(C)C[C@@H]2OCc3cn(nn3)CCCC(=O)N([C@@H](C)CO)C[C@H]2C)cc1 | 1.7 | 4.6
68 | C[C@H]1CCCCO[C@@H](CN(C)S(=O)(=O)c2cccs2)[C@@H](C)CN([C@@H](C)CO)C(=O)c2cc(NC(=O)Nc3ccc4c(c3)OCO4)ccc2O1 | -12.1 | -7.4
69 | COc1ccccc1NC(=O)N[C@@H]1CC[C@H](CCNS(=O)(=O)c2ccc(F)cc2)O[C@H]1CO | -9.3 | -3.4
70 | C[C@@H]1CCCCO[C@H](CN(C)C(=O)Nc2cccc3ccccc23)[C@@H](C)CN([C@H](C)CO)C(=O)c2cc(NC(=O)CCCCCC(=O)Nc3ccccc3N)ccc2O1 | 25.7 | 11.6
71 | O=C(NC[C@@H]1CC[C@@H]2[C@@H](CN2Cc2cccc(Cl)c2)O1)C1CCC1 | 17.3 | 24.4
72 | CC(=O)N(C)C[C@H]1Oc2ncc(C#CCc3ccccc3)cc2C(=O)N([C@@H](C)CO)C[C@@H]1C | 8.4 | 8.8
73 | O=C(c1ccncc1)N1CC(=O)N2[C@H](CO)[C@@H](c3ccc(-c4cccnc4)cc3)[C@H]2C1 | 5.1 | -1.4
74 | CN1c2ccc(-c3ccccc3)cc2[C@@H]2[C@@H](CCN2C(=O)NC2CCCCC2)[C@H]1CO | ? | nt
75 | C[C@@H]1CN([C@@H](C)CO)C(=O)c2cc(/C=C/c3ccccc3)cnc2O[C@@H]1CN(C)S(C)(=O)=O | -11.9 | -2.6

(further entries)
cpd | Compound | Vaccinia stage | Vaccinia stage Venus
76 | COc1ccc(CNC(=O)C[C@@H]2C=C[C@H](NC(=O)c3cccc(F)c3)[C@@H](CO)O2)cc1 | -5.2 | 3.2
77 | Cn1cnc(S(=O)(=O)N2CCCCN3[C@@H](CO)[C@H](c4ccc(C#CC5CC5)cc4)[C@@H]3C2)c1 | 13.3 | -2.6
78 | CN1C(=O)c2cc(NC(=O)Nc3ccc(Cl)cc3)ccc2OC[C@H]2O[C@@H](CC(=O)O)CC[C@@H]21 | 0.8 | 0.2
79 | C[C@@H]1CN([C@H](C)CO)C(=O)c2cccc(NS(=O)(=O)c3cn(C)cn3)c2O[C@H]1CN(C)CC1CCCCC1 | 3.0 | 0.4
